# AID504770 – growth inhibition of E. coli YBA685, primary screen, V. cholerae RctB inhibitors; 130,000 tested, 0.27% active; z-score (concentration not given with the values); E. coli YBA685 rctB-dependent plasmid, OD600 growth, 3 h; stronger effect = lower value;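 active means z-score under -2 on both plates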;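 further: wells of about 30 µL received 100 nL stock; score is relative to mean and SD of the test wells; the first replicate is given; strong numbers were not always called active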
# Ba CapD inh – Bacillus anthracis CapD inhibitors, primary screen, biochemical, fluorescence intensity; purified CapD enzyme, fluorescence intensity read-out; stronger effect = lower value; some hits fall short of the stated cut; CapD gamma-glutamyltranspeptidase (Bacillus anthracis Ames Ancestor); 140,000 tested, 0.23% active; z-score (no concentration beside the values);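 active means z-score under -4 in either of two replicates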;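 further: stock transfer was 100 nL into about 40 µL; score is relative to mean and spread of the plate; one replicate is shown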
# An asterisk follows results filed as active; . = no result given.
Molecule | AID504770 | Ba CapD inh
CC1(C)NCCC12C(=O)N(Cc1ccccc1)c1ccccc12 (centres undefined) | 0.6 | -0.325
O=C(Nc1cccnc1)c1nn(-c2ccccc2)c(=O)c2ccccc12 | -0.25 | .
Cc1nc(C(=O)Nc2ccc(F)cc2F)nn1-c1ccc(F)cc1F | . | -0.285
O=C1NC(=S)S/C1=C\c1cc(Cl)cc(Cl)c1O | . | -0.855
O=C1CCCN1Cc1ncnn1-c1ccccc1 | 1.35 | .
COc1ccc(C2=NCCc3sccc32)cc1 | . | -1.8
Cc1nc2cc(C(F)(F)F)ccc2n1C | 0.05 | 0.77
Cc1ccc(S(=O)(=O)N2CCn3c2nc2ccccc23)cc1 | 0.05 | 0.6
Cc1c(Cl)cccc1S(=O)(=O)Nc1ccnn1C | . | -0.27
Clc1ccc(CO/N=C/c2c(Cl)nc3sccn23)cc1Cl | . | -0.605
OC(CNC1CCCC1)c1ccccc1 (centres undefined) | -0.25 | .
COc1ccccc1NC(=O)Nc1n[nH]c(-c2ccccc2)n1 | 0.45 | .
CCOc1ccc(N2C(=O)CS(=O)(=O)C2c2cccc(Br)c2)cc1 (centres undefined) | . | 0.2
OCCNCC(O)Cn1c2ccccc2c2ccccc21 (centres undefined) | . | 7.81
Cc1ccccc1C(=O)Nc1cc2c3c(c1)C1CCCC1CN3CC1CCCC21 (centres undefined) | . | -0.105
CNC(=S)NNc1nc(N2CCOCC2)nc(N2CCOCC2)n1 | -0.1 | .
CC(Sc1nnc(-c2cccnc2)o1)C(=O)c1ccccc1 (centres undefined) | . | -0.685
CCCN1CCC(N(C(=O)CCC(=O)N2CCc3ccccc3C2)C2CC2)CC1 | . | 0.005
Cc1ccsc1CN1CCN(Cc2ccccc2)CC1 | -0.35 | -0.14
Cc1cc(=O)oc2cc(OCC(=O)N3CCCC3)c(Cl)cc12 | -0.35 | .
Cc1cc(O)c2c3c(c(=O)oc2c1)CCCC3 | . | 0.66
Cc1ccc(CCNC(=O)c2cccc3c2SCCC3=O)cc1 | -1.85 | -0.54
CN(C)CCCNc1ncnc2c1cnn2-c1ccccc1 | 0.2 | 1.77
O=S(=O)(CCN1CCOCC1)c1ccc(OC(F)(F)F)cc1 | -0.35 | -0.745
Cn1cccc1/C=C/C(=O)OCC(=O)c1ccc(Cl)s1 | 0.95 | .
C=CCn1c(=N)n(CC(O)COc2ccc(C)cc2)c2ccccc21 (centres undefined) | -1.1 | 19.2
CCc1cc2c(=O)c(Oc3ccc(F)cc3)coc2c(CN(C)C)c1O | 0 | .
CC1C(c2ccc(Cl)cc2)NC(c2ccc(Cl)cc2)C(C)C1(C)O (centres undefined) | . | -0.555
Brc1ccc(CSc2c[nH]c3ccccc23)cc1 | -0.25 | 0.955
Cc1ccc(CS(=O)Cc2ccc(C(=O)N3CCC(C(N)=O)CC3)o2)cc1 (centres undefined) | 0.2 | -1.25
COc1ccc(NC(=O)CCc2c(C)nc3cc(-c4ccc(OC)cc4OC)nn3c2C)cc1 | -0.65 | 49.3
Cc1ccnc(NS(=O)(=O)c2ccccc2)n1 | -0.9 | -0.01
CCn1cc(Br)c(C(=O)N2CCN(c3ccccc3)CC2)n1 | 1.65 | -0.16
COCC(=O)Nc1ccc2nc3n(c(=O)c2c1)CCCCC3 | 1.2 | 1.92
COc1ccc2c(c1)sc(=NC(=O)CSCC(=O)NC1CCCCC1)n2C | -0.3 | 1.6
CSc1ncc(Cl)c(C(=O)Oc2ccccc2F)n1 | 0 | -1.4
O=C(CSc1nnc(-c2ccco2)o1)c1cc2c3c(c1)CC(=O)N3CCC2 | 0.05 | .
O=c1nccc(NCc2ccco2)[nH]1 | -0.15 | 0.52
Cc1nc2ncnn2c(C)c1CCC(=O)N1CCCCC1 | 1.6 | 0.94
O=c1c2ccccc2nc(-c2ccccc2)n1-c1ccccc1O | -0.4 | 3.57
Cc1cccc2cc(C(c3nnnn3Cc3ccccc3)N3CCN(C(=O)c4ccco4)CC3)c(=O)[nH]c12 (centres undefined) | 1.85 | .
CCC(=O)OC1CCC2C3CCC4=CC(=O)CCC4(C)C3CCC12C (centres undefined) | . | -0.15
N#CCSc1n[nH]c(=O)n1-c1ccc(Cl)cc1 | -0.45 | 1.1
COc1cccc(-c2nc(N)nc(SC)c2C#N)c1 | 2.5 | 0.79
Cc1c(C(=O)N2c3ccc(F)cc3CCC2C)sc2ncn(Cc3cccc(F)c3)c(=O)c12 (centres undefined) | . | -0.145
CCOc1ccc(N=C2SC(C(=O)Nc3cccc(Cl)c3)CC(=O)N2C)cc1 (centres undefined) | . | -0.31
Nc1nc(CSCc2ccccc2)nc(N2CCOCC2)n1 | . | -0.595
CN(C)S(=O)(=O)Oc1ccccc1C(=O)Nc1ccc(Cl)cc1 | . | 0.44
CCOC(=O)c1cnc2c(C)cc(Cl)cc2c1NCc1ccccc1 | 0.85 | 15.5
COC(=O)c1c(NC(=O)c2ccoc2C)sc2c1CCC(C)C2 (centres undefined) | -1 | 2.04
CC(C)N(C(=O)CSc1nnc(-c2cccs2)o1)C(C)C | -0.45 | .
Cc1cc(=O)nc2c3ccccc3n(CC(=O)NC(C)c3ccc4c(c3)OCCO4)n12 (centres undefined) | 0.1 | -0.485
O=c1[nH]cnc2c1nnn2Cc1ccc(Cl)cc1 | -0.1 | 1.04
CCN(CC)S(=O)(=O)c1ccc(N2C(=O)CC3(CCCC3)C2=O)c(Cl)c1 | 0.2 | 0.29
COC(=O)c1ccc2c(=O)n(CC(C)O)c(SCc3cc(Cl)c4c(c3)OCCO4)nc2c1 (centres undefined) | -0.05 | .
Cc1cc2nc(COc3ccccc3)cc(=O)n2o1 | -1.25 | 0.63
O=C(O)CCc1nnc2n(CCc3ccccc3)c(=O)c3ccccc3n12 | 0.1 | 0.185
O=C(O)c1ccc(CCN2CCCC2)nc1 | . | -0.535
O=C(c1ccc(Br)cc1)N1CCN(c2ccc(N3CCCCC3)nn2)CC1 | 0.15 | .
Cc1cc(C)[nH]c(=S)n1 | -3.1 | .

# More results:
Molecule | AID504770 | Ba CapD inh
Cc1ccc2c(c1)c(=O)c1ccccc1n2CC(=O)Nc1ccc(OC(F)(F)F)cc1 | . | 0.255
CSc1sc(C(=O)Sc2ccccc2)c2c1S(=O)(=O)N(C)c1ccccc1-2 | 0.25 | -0.545
Clc1ccc(SCc2noc(-c3ccsc3)n2)cc1 | 1.25 | -0.2
CC(C)NC(=O)C1CCN(C(=O)C(C(=O)c2ccccc2)n2cc(Cl)ccc2=O)CC1 (centres undefined) | 0.35 | .
CSc1nnc(-c2ccccc2)n1-c1ccccc1 | 0.95 | -0.1
CCOc1ccc2nc(SCC(=O)OC3CCCCC3)c(C)cc2c1 | -0.95 | 9.71
CCOc1cccc2c1OC(c1cccc(F)c1)N1N=C(c3cccnc3)CC21 (centres undefined) | . | 0.515
CC1CCCCN1C(=O)c1cc2c(=O)n3ccccc3nc2s1 (centres undefined) | 1.2 | .
Cc1ccc(-c2cc(-c3nnco3)c3ccccc3n2)cc1 | -0.1 | .
CC(=O)N(c1ccccc1)c1nc(/C=C/C(=O)N(Cc2ccco2)C2CCS(=O)(=O)C2)cs1 (centres undefined) | 0.45 | .
CCOC(=O)c1cnc2c(ccc3ccccc32)c1Nc1cccc(C)c1 | . | -0.255
CCCCNC(=O)Cn1ncc2c1-c1ccccc1OC2 | -0.8 | -0.145
O=C1CC(c2ccco2)CC(O)=C1C=NCCN1CCN(C2OC(=O)c3ccccc32)CC1 (centres undefined) | -0.2 | -0.135
CCCNC(=O)c1nnc(Cc2cccc(F)c2)o1 | -0.95 | -0.11
COc1cccc2c1c(NC(=O)c1nccnc1C(=O)O)nn2C | -0.2 | -0.975
COc1cc(OC)nc(C2CCN(C(=O)c3ccccc3NC(=O)c3cccc(C(F)(F)F)c3)CC2)n1 | . | 0.155
CN(C)C(=O)COC(=O)c1c2c(nc3ccccc13)CCCCC2 | 1.5 | .
COC(=O)/C(=C(/O)CSc1n[nH]c(=O)[nH]c1=O)c1nc2ccccc2[nH]1 | -0.55 | .
CCn1c(C)nc2cc(-c3nnc4n3CCCCC4)ccc21 | 0.25 | .
Oc1ccccc1/C=N/n1cnnc1 | 0.75 | -0.205

# Rewritten as labelled records: entries from further up
> CCOc1ccc2nc(SCC(=O)OC3CCCCC3)c(C)cc2c1
  AID504770 = -0.95
  Ba CapD inh = 9.71

> CC(C)NC(=O)C1CCN(C(=O)C(C(=O)c2ccccc2)n2cc(Cl)ccc2=O)CC1 (centres undefined)
  AID504770 = 0.35
  Ba CapD inh = .

> CSc1sc(C(=O)Sc2ccccc2)c2c1S(=O)(=O)N(C)c1ccccc1-2
  AID504770 = 0.25
  Ba CapD inh = -0.545

> CCn1c(C)nc2cc(-c3nnc4n3CCCCC4)ccc21
  AID504770 = 0.25
  Ba CapD inh = .

# Following part.
SMILES	AID504770	Ba CapD inh
CCOC(=O)CCCc1sc(N)nc1-c1[nH]c(=O)[nH]c1C	1.35	-0.435
CC1(C)CC(=O)C(C=NCC2CCNCC2)=C(O)C1	-0.2	0.135
NNC(=O)c1ccc(COc2cc(Cl)ccc2Cl)o1	0.9	0.475
O=S(=O)(Nc1ccc(Br)cc1)C(F)(F)F	-0.85	-0.24
CC(C)c1nnc(NC(=O)c2ccc3ccccc3c2)s1	1.05	0.33
CCN(CC)c1nc(C)nc2sc(C(=O)N3CCC(C)CC3)c(C)c12	.	-1.15
CC(=O)Oc1cn(C(C)C)c2nc(C)n3c(=O)c4ccccc4nc3c12	-0.5	.
O=[N+]([O-])C(=C(\Nc1ccccc1)Sc1ccccc1)/C(Cl)=C(/Cl)Br	.	-0.42
CC(=O)N1c2ccccc2NC(=O)C1CC(=O)Nc1ccccc1Cl (centres undefined)	-1	2.54
O=C(CN1CCOc2ccccc21)NC1CCCCCC1	0.5	0.085
CSc1ccccc1NC(=O)Nc1ccccc1	-0.95	-0.425
O=C(COC(=O)C1CCCCC1)Nc1ncc(C(F)(F)F)cc1Cl	0.6	1.88
COc1ccc(C2C(C(=O)Nc3nc4ccccc4s3)=C(C)NC3=C2C(=O)CC(C)(C)C3)cc1 (centres undefined)	.	41
COC(=O)c1ccc(Cn2c(Cc3ccccc3)nc3ccccc32)o1	-0.45	.
CC(C)(C)NC(=O)C1C(=O)NC2(C)CC1c1ccccc1O2 (centres undefined)	0.2	-0.055
CN1C(=O)c2ccc(NC3=NS(=O)(=O)c4ccccc43)cc2C1=O	-0.4	.
COc1ccc(C(=O)c2cnc3cc4c(cc3c2N2CCCCC2)OCO4)cc1	-0.8	-1.37
CN(C)c1ccc(C2Nc3cc(Cl)ccc3O2)c(Cl)c1 (centres undefined)	.	-0.875
Cc1c(C(=O)N(C)Cc2ccccc2)oc2ccc(S(=O)(=O)N3CCCC3)cc12	-0.85	-0.24
CCOC(=O)NCc1cc(C(=O)O)ccc1O	-1	-0.76
Cc1cccc(N2CN(Cc3ccco3)CNC2=S)c1	-0.15	1.71
O=C(Nc1ccc(F)cc1F)Nc1ccccc1C(=O)N1CCC(c2c[nH]c3ccccc23)CC1	.	-0.82
COc1ccccc1-c1c(C(F)(F)F)oc2c(CN3CCCCC3)c(O)ccc2c1=O	.	-0.3
CSc1nn(-c2ccccc2)c(N)c1S(=O)(=O)c1ccc(Cl)cc1	-1.1	-0.135
CCC(Sc1nc2c(c(=O)[nH]1)CCC2)C(=O)Nc1ccccc1F (centres undefined)	0.7	0.55
CC1=CC(C)=NC2=NN=C(NC(=O)Nc3ccc(Cl)c(Cl)c3)C12 (centres undefined)	-0.55	-0.29
COc1ccc(N2CCN(C(=O)Cn3c(Cl)nc4c3c(=O)n(C)c(=O)n4C)CC2)cc1	-0.9	.
CC(=O)Oc1cc2oc(=O)cc(C)c2cc1Cl	-3.45	101
O=C(CCCN1C(=O)CSc2ncccc21)NC1CCCC1	0	0.905
COc1ccc2occ(C(=O)c3oc4ccc(Cl)cc4c3N)c2c1	.	0.74

# Sorted by length of the SMILES (largest number first): 4 of the compounds above
SMILES	AID504770	Ba CapD inh
Cc1c(C(=O)N(C)Cc2ccccc2)oc2ccc(S(=O)(=O)N3CCCC3)cc12	-0.85	-0.24
CCC(Sc1nc2c(c(=O)[nH]1)CCC2)C(=O)Nc1ccccc1F (centres undefined)	0.7	0.55
O=C(CCCN1C(=O)CSc2ncccc21)NC1CCCC1	0	0.905
CC(=O)Oc1cc2oc(=O)cc(C)c2cc1Cl	-3.45	101

# New compounds follow.
SMILES	AID504770	Ba CapD inh
COc1cc2c(cc1OC)CN(C(=O)C(C)(C)C)CC2	-1	-0.995
O=C(O)c1ccccc1C(=O)c1cc(Cl)ccc1Cl	1.2	-1.02
O=C1CN(c2ccccc2)C(=S)N1/N=C/c1ccc(F)cc1	0.4	-0.345
O=c1cc(O)nc(SCc2c(F)cccc2Cl)n1C1CCCC1	0.7	.
CCOC(=O)c1sc2nc(SCC(=O)NCc3ccccc3)n(Cc3ccco3)c(=O)c2c1C	.	-0.41
CCOc1cc(C2C(C#N)=C(N)Oc3n[nH]c(-c4ccncc4)c32)cc([N+](=O)[O-])c1O (centres undefined)	.	-0.845
CC(=O)c1ccc(N2CCN(C(=O)OCCOc3ccc4ccccc4c3)CC2)cc1	.	14.3
CCCNC(=O)c1ccc(SC)cc1OC	-0.7	.
Cc1cc(C)cc(C(=O)Nc2ncn[nH]2)c1	-0.6	0.385
CCCCCCC(=O)Nc1cccc(C(=O)N/N=C/c2ccc(OC(C)C)cc2)c1	.	0.18
COC(=O)C(C)(N)Cc1ccc(O)cc1 (centres undefined)	0.05	0.82
O=S(=O)(c1ccc(S(=O)(=O)C(F)(F)F)cc1)C(F)(F)F	-0.55	0.07
CCOC(=O)N1C(=O)c2cc(OC)ccc2S1(=O)=O	.	-0.35
CCCCNC(=O)c1cc2cc(CC)ccc2[nH]1	-0.75	3.92

# Bioassay records from PubChem.
